Screens deposited in PubChem by National Center for Advancing Translational Sciences (NCATS).
gsp agonist – gsp mutant agonism. gsp mutant cells, cAMP HTRF, 30 min; control for the full effect not named in the record. Potency, µM (series often up to 76.9 µM), without a hit: at the highest dose activation (cAMP increase), actives largely listed as activators. hit rate 0.13% among 340,000; active = well fitted activation curve with a large enough effect; inconclusive = small, poorly fitted or top-dose-only effect, or another doubt; inactive = no such curve, though single readings can be large or run the other way; cell line not stated here;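 further: phosphodiesterase inhibitor Ro 20-1724 added with compounds to block cAMP breakdown; potency means the concentration at half of the fitted maximal effect; nearly all actives have a fitted effect of over 60% in size; about a fifth of the inactives were tested at one dose only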
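Cells in DMEM/10% FBS with G418 were pretreated with compounds in DMSO plus […] (300 uM stock) for 30 min at 37C. cAMP was measured by HTRF (cAMP-d2 plus anti-cAMP antibody-K) after 30 min at room temperature.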
Menin-MLL FL inh – displaces fluorescein MLL peptide from human menin. Fluorescence polarization, fluorescein-MLL peptide displacement from menin. FP activity change, % at 61.4 µM. 290,000 tested, under 10 active. AID 1766; inconclusive = falling polarisation curve, or a change in total fluorescence; inactive = total fluorescence flat and polarisation flat or rising; no compound was filed as active; the % refers to the polarisation; negative = inhibition;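 further: % of control where 0% means no effect; inhibitors lower the polarisation; unlabelled MLL peptide was the positive control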
gsp antagonist – gsp mutant antagonism; gsp-mutant cells, cAMP HTRF, 30 min; control for the full effect not named in the record; Potency, µM (top dose mostly 76.9 µM), without a hit: top-dose activity change, negative = inhibition, most hits filed as inhibitors; hit rate 0.4% among 340,000; active = falling curve of any shape with a large fitted effect; inconclusive = falling curve, mostly with a smaller effect; inactive = flat or rising curve; cell line not stated here;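 further: intracellular cAMP measured with PDE inhibitor Ro 20-1724 present during compound exposure; potency means the concentration at half of the fitted maximal effect; on the % scale 0 is the no-effect control and ±100 the full control effect; nearly all actives have a fitted effect of over 65% in size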
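Cells in G418 medium, seeded 16-24 h, 37C; buffer exchange to DPBS + 1 mM CaCl2, 0.5 mM MgCl2, 0.05% BSA; cpds in DMSO + […] (300 uM stock), 30 min 37C; HTRF cAMP detection.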
Sfp PPTase inh – blocks B. subtilis Sfp PPTase activity. Biochemical Sfp PPTase activity, qHTS. hit rate 3.5% among 310,000. Potency, µM, without a hit: max response, negative = inhibition, most hits filed as inhibitors. Q9F4F7. AID 1490; active means well fitted inhibition curve with a large enough effect; inconclusive means small, poorly fitted or top-dose-only effect, or another doubt; inactive means no such curve, though single readings can be large or run the other way;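 further: the enzyme is Sfp with the accession as filed and its product quenches rhodamine fluorescence; potency means the concentration at half of the fitted maximal effect; 0% = enzyme reaction without inhibitor and -100% = no enzyme wells; top concentration of the series not given in the record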
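With Hepes-Na pH 7.6 buffer containing 10 mM MgCl2, Sfp (15 nM) modified BHQ-2-YbbR (12.5 uM) using rhodamine-CoA (5 uM). Two reads 30 minutes apart at 525/598 nm yielded each well's rate.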
TRPV1 PAM – human TRPV1 potentiation. Q8NER1. TRPV1-expressing cells, Fluo-8 calcium influx, capsaicin EC20 potentiation; host cell line not named in the record; control for the full effect not named in the record. potentiation, % at 8.33 µM. hit rate 0.02% among 320,000. AID 540277; active means potentiation above 80%; inconclusive means 30% to 80%; inactive means below 30%; further: 0% is about no effect
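Fluo-8 calcium influx in TRPV1-expressing cells, kinetic read (ex 480/em 520 nm). Compound added and read 3 min for agonist activity, followed by capsaicin at EC20 final and 2 min further read for enhancement.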
ClpP mod – qHTS Assay for Activators of ClpP. hit rate 1.9% among 340,000. ATP-dependent Clp protease proteolytic subunit (Bacillus subtilis (strain 168)), P80244. purified B. subtilis ClpP, FRET peptide cleavage, 20 min. AID 651965, 2013. Potency, µM (doses to about 57.5 µM), for inactives: at the top dose activity change, negative = active; active = well fitted falling curve with a large enough effect; inconclusive = small, poorly fitted or top-dose-only effect; inactive = no such curve, though single readings can be large or run the other way; further: potency means the concentration at half of the fitted maximal effect; the source files actives as falling curves though it sought activators and does not explain the sign; nearly all actives have a fitted effect of over 65% in size; many hits overshoot -100%
Target sequence (P80244 whole entry, looked up): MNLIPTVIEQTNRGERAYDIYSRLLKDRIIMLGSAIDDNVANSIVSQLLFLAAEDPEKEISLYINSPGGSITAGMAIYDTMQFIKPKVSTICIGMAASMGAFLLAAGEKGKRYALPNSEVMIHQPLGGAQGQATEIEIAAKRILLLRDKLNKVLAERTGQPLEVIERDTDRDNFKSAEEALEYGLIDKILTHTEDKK
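ClpP 10 microg/mL final, pH 8 Tris/KCl buffer with BSA, glycerol, Tween-20; compound pinned in; FRET-FV substrate; RT 20 min; Ex320/Em430; ΔFRET vs ADEP 5.8 microM, DMSO, no enzyme.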
D2 PAM – human D2 receptor positive allosteric modulation; hit rate 0.23% among 360,000; AID 624464; DiscoveRx D2 beta-arrestin cells, luminescence, 90 min; 100% = 57 uM dopamine signal; P14416; potentiation, % (test concentration not listed); active = potentiation of 50% or more; inconclusive = 30% to 50%; inactive = 30% or less;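 further: compound concentration not given in the record; tested on top of an EC20 dose of dopamine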
Target sequence (P14416 whole entry, looked up): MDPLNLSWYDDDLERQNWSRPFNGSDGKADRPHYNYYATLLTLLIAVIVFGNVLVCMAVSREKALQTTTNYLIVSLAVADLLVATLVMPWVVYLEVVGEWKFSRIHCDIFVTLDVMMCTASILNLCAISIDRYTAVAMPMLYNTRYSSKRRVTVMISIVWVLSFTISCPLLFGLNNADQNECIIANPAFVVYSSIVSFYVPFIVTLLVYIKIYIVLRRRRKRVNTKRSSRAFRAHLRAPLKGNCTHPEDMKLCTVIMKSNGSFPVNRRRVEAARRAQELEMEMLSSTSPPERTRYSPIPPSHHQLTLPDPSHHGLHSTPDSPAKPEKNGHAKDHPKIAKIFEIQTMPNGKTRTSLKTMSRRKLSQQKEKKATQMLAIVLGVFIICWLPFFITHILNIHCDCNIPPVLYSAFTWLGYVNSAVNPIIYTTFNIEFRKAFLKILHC
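PathHunter beta-arrestin assay in DiscoveRx D2 cells. Compounds were added with an EC20 of dopamine (50 nM final) for 90 min at 37 deg C. Luminescence was read 1 h after detection reagent, with 57 uM dopamine as the EC100 control.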
* marks the source's active call; other numbers are inactive results; u = inconclusive; x = not tested or not shown; & = joins results of further samples; [ ] = remark or other dose.

canonical_smiles,ClpP mod,gsp agonist,gsp antagonist,D2 PAM,TRPV1 PAM,Menin-MLL FL inh,Sfp PPTase inh
CCOc1ccc2nc(N3CCCC(C(=O)NCCCN4CC(C)CC(C)C4)C3)sc2c1 (stereo not given),0.3%,24%,6%,-26,25,1.4,15%
O=C(/C=C\NCC(=O)c1ccccc1)c1ccc(F)cc1,-0.1%,25%,4%,-10,19,22,4%
CSc1ccc(CNC(=O)CCn2ccc3cc(S(=O)(=O)N4CCCC4)ccc32)cc1,-1.3%&-4.4%,17%,-11%,5,-13,-1.8,6%
Cc1ccc(-n2cccn2)c(CN2CCCC(C(=O)c3sccc3C)C2)c1 (stereo not given),x,-38%[15.4 µM],-42%,-13,-1,-1.8,12%
CCN(C[C@H]1N[C@@](Cc2ccccc2)(C(=O)OC)[C@H]2C(=O)N(Cc3ccccc3)C(=O)[C@@H]12)C(=O)Nc1ccc(C(F)(F)F)cc1,0.0%,x,-12%,-5,x,x,x
Cc1cccc(S(=O)(=O)c2c(N)n(Cc3ccco3)c3nc4ccccc4nc23)c1,6.3µM*,u,u,-9,-4,u,u
CCOC(=O)c1ccc(NC(=O)CCNS(=O)(=O)c2cccs2)cc1,x,-8%[15.4 µM],2%,-5,-8,-1.3,2%
COc1cc(-c2nc3oc4ccccc4c(=O)c3c(=O)n2Cc2ccco2)cc(OC)c1OC,-5.7%,u,-9%,-3,-2,0.3,-9%
Cc1ccc(CNC(=O)C2CCCN(S(=O)(=O)c3c(C)n[nH]c3C)C2)cc1 (stereo not given),0.4%,-21%,4%,0,6,2.3,6%
Cc1cc(OCCN2CCOCC2)nc2ccccc12,-3.0%,u,-3%,-9,0,-0.6,11%
O=C(CN(Cc1ccccc1Cl)C(=O)CCC(=O)Nc1nccs1)NCC1CCCO1 (stereo not given),x,-3%,9%,-2,12,-8.9,-1%
O=C(COC(=O)c1cc[n+]([O-])cc1)Nc1ccc(Cl)cc1C(F)(F)F,-6.2%,25%,11%,16,-2,x,x
c1csc(-c2nnc(-c3ccc(N4CCOCC4)cc3)o2)c1,u,u,-5%,-7,-12,0.1,7%
Cc1c(C)c2ccc(Oc3ccc([N+](=O)[O-])cc3C(F)(F)F)c(C)c2oc1=O,0.0%,3%[15.4 µM],-8%,-2,4,-1.2,16%
Cc1ccc(S(=O)(=O)Nc2nc(C)c(C)s2)cc1,0.0%,1%,6%,-5,3,0.4,-6%

canonical_smiles,ClpP mod,gsp agonist,gsp antagonist,D2 PAM,TRPV1 PAM,Menin-MLL FL inh,Sfp PPTase inh
Cc1cc(C(=O)CSc2nnc(-c3ccc(F)cc3)o2)c(C)n1CC1COc2ccccc2O1 (stereo not given),u,-19%,-5%,-4,2,7.6,-19%
COc1ccc(NC(=O)CSc2nnc(-c3ccccn3)n2N)cc1Cl,-2.5%,u,10%,-1,3,2.0,1%
COc1ccc(NC(=S)N2CCN(C(=O)C3CCCO3)CC2)cc1 (stereo not given),-2.0%,23%,5%,-7,-5,x,9%
NNc1nc(-c2ccccc2)cc(-c2ccccc2O)n1,-1.6%,-16%,-7%,-38,x,-5.8,-5%
CCn1c(SCC(=O)N2CCC(C)CC2)nc2c([nH]c3ccccc32)c1=O,-6.1%,-10%,x,-16,x,x,x
O=C(Nc1cccc(Cl)c1)ON1CCCCC1,0.1%,-50%[inhibitor],x,-2,x,x,x
C=CCNC(=S)Nc1ccccc1,-0.3%,-3%,4%,0,-2,-6.3,-8%
CCCC(=O)Oc1ccc(C2NC(=O)c3ccccc3O2)cc1 (stereo not given),-0.5%,7%[15.4 µM],6%,-3,17,-0.9,27%
CC(=O)CSc1nnc(-c2ccc(S(=O)(=O)N3CCC(C)CC3)cc2)o1,-2.5%,-4%,3%,0,x,x,x
Cc1ccn2c(=O)nc(SCC(=O)NCCc3ccccc3)nc2c1,-17%,14%,3%,5,-31,x,x
O=C(CN1CCCCCC1)Nc1ccc([N+](=O)[O-])cc1Br,x,-5%,0%,-8,1,0.1,6%
OCCN1CCOCCN(CCO)CCOCC1,-4.1%,12%,-10%,1,-2,-2.0,11%
Cc1ccc2c(c1)N(C(=O)CCC(=O)N1CCCCC1)CCO2,-0.3%,-8%,3%,-8,8,-0.2,17%
O=C(NCC1(c2ccccc2)CCCC1)c1ccccc1Br,x,8%[15.4 µM],-15%,-10,-11,3.3,7%
C=CCNC(=O)C(=O)NCC1CCCN1S(=O)(=O)c1cccs1 (stereo not given),2.4%,9%[15.4 µM],-3%,-33,17,x,x

canonical_smiles,ClpP mod,gsp agonist,gsp antagonist,D2 PAM,TRPV1 PAM,Menin-MLL FL inh,Sfp PPTase inh
COc1ccc(CCn2c(=O)c3cccnc3n(Cc3ccc([N+](=O)[O-])cc3)c2=O)cc1OC,-1.9%,-12%,2%,1,-11,-0.9,15%
CCn1c(SCC(=O)NC2=NCCS2)nnc1C(C)NC(=O)c1ccc(Cl)cc1 (stereo not given),0.0%,0%,11%,-12,-4,x,13%
O=C1c2ccccc2C(=O)N1c1cccc(-c2csc(Nc3ccc4c(c3)OCO4)n2)c1,x,x,x,x,26,5.8,u
Cc1ccc(NC(=O)CCC(=O)Nc2ccc(C)cc2)cc1,-1.5%,0%[15.4 µM],2%,-7,-3,-5.1,14%
ON=Cc1ccnc2ccccc12,-23%,u,x,-3,x,x,x
Cc1cc(F)ccc1NC(=S)NCCc1ccccc1,-1.6%,2%,4%,-2,-14,-1.0,0%
COc1cc2[nH]c(=O)n(CCCCCC(=O)NC3CCCC3)c(=O)c2cc1OC,x,4%[15.4 µM],-5%,4,5,2.8,26%
Cn1c(=O)c2c(nc(CN3CCOCC3)n2CCCO)n(C)c1=O,1.3%,u,18%,2,4,1.8,3%
Cc1cc(C)n(C(=O)c2ccc([N+](=O)[O-])c(Cl)c2)n1,3.4%,29%,-8%,5,-2,5.0,-6%
CCN(CC)C(=O)COC(=O)c1cc(-c2ccc(OC)cc2)nc2ccccc12,u,-4%,u,-16,2,3.4,-15%
Cc1scc(C(=O)N2CCN(c3ccc(Cl)cc3)CC2)c1C,-3.0%,-4%[15.4 µM],-2%,-8,1,4.0,-21%
C[C@H]1CN([C@@H](C)CO)C(=O)CCCn2cc(nn2)CO[C@@H]1CN(C)S(=O)(=O)c1cccs1,0.3%,-30%[inhibitor],x,2,x,x,x
Cc1ccc(C)c(S(=O)(=O)N2CCN(C(=O)CNC(=O)c3ccc4ccccc4c3)CC2)c1,-14%,13%[15.4 µM],-25%,17,8,x,x
CCNC(=O)C(=O)Nc1ccc(OC)c(Cl)c1,x,-13%[15.4 µM],x,-8,6,0.2,12%
Cc1cccc(C(=O)NNC(=O)c2ccccc2-n2cccc2)c1,x,1%,-1%,-4,u,-0.1,14%

canonical_smiles,ClpP mod,gsp agonist,gsp antagonist,D2 PAM,TRPV1 PAM,Menin-MLL FL inh,Sfp PPTase inh
Cc1ccc(S(=O)(=O)N2[C@@H](c3ccc(Cl)cc3)C(C(=O)O)=CC[C@H]2c2ccc(C(C)C)cc2)cc1,0.2%,24%,-14%,-4,-22,x,x
Cn1c(SCC(=O)Nc2ccc(F)cc2)nc2c([nH]c3ccccc32)c1=O,-4.5%&-2.6%,2%,5%,-2,-3,3.3,-26%
CN(CC(=O)Nc1c(Cl)cccc1Cl)C(=O)CCC(=O)c1ccccc1,0.6%,u,9%,-15,4,x,x
O=C(N/N=C1/CC2CCC1C2)c1cc2ccccc2cc1O (stereo not given),2.0%,-19%,-10%,-13,7,x,15%
COc1ccc(NS(=O)(=O)c2ccc(NC(=O)C3CC3)cc2)cc1,-0.1%,3%,-3%,17,-26,x,17%
Cc1ccc(Oc2ncc(-c3ccc(Cl)cc3)cn2)cc1,-5.3%,26%,14%,-4,-8,1.2,14%
Cc1nc2scc(C)n2c(=O)c1S(=O)(=O)NCc1ccccc1,3.7%,-9%,18%,-6,-5,0.2,7%
COC(=O)c1cc(-c2ccccc2)sc1NC(=O)CN1C(=O)c2ccccc2C1=O,3.0%,-13%,-3%,0,4,3.9,20µM*
COCCNC(=O)C1CC(c2cccc([N+](=O)[O-])c2)=NO1 (stereo not given),1.7%,-22%,13%,-4,-1,-0.8,16%
CCCC(C)CO (stereo not given),0.5%,x,9%,-3,1,x,x
CN(C(=O)COC(=O)Cc1c[nH]c2ccccc12)c1c(N)n(Cc2ccccc2)c(=O)[nH]c1=O,-0.4%,-6%,8%,1,-15,x,x
O=C(c1ccc(S(=O)(=O)N2CCCC2)cc1)N1CCN(Cc2ccc3c(c2)OCO3)CC1,1.6%,22%,4%,-19,0,2.2,13%
CN(C)S(=O)(=O)c1ccc(Cl)c(NC(=O)CNC2(C)CCS(=O)(=O)C2)c1 (stereo not given),x,10%,6%,-8,x,x,x
O=C(O)c1cc([N+](=O)[O-])cc2ccccc12,x,-31%,-9%,-2,x,x,x
COc1ccccc1NC(=S)N1CCn2cccc2C1c1cccnc1 (stereo not given),x,8%[15.4 µM],-12%,-3,2,0.8,8%

canonical_smiles,ClpP mod,gsp agonist,gsp antagonist,D2 PAM,TRPV1 PAM,Menin-MLL FL inh,Sfp PPTase inh
CC(=O)c1ccccc1NC(=O)COC(=O)CN1C(=O)C2CCCCC2C1=O (stereo not given),1.5%,u,4%,9,3,x,x
O=Cc1ccccc1OCCCOc1cccc2cccnc12,-10%,17%,-4%,-5,3,-0.4,7%
COCCNC(=O)CSCc1cc(C)cc(C)c1,x,10%[15.4 µM],8%,2,5,-0.5,11%
O=C(CCCn1c(=S)[nH]c2cc3c(cc2c1=O)OCO3)N1CCN(c2ccc(Cl)cc2)CC1,-1.8%,-30%,-9%,1,0,5.1,8%
O=C(c1ccccc1)c1cc([N+](=O)[O-])ccc1N1CCOCC1,-6.1%,8%[15.4 µM],-1%,-4,-9,3.1,23%
COc1cccc(-c2nc(-c3ccc(NC(=O)c4cccnc4)cc3)no2)c1,u,u,5%,-9,-3,1.0,7%
CC1Oc2ccccc2N(CC(=O)Nc2ccc(F)cc2)C1=O (stereo not given),-11%,-4%[15.4 µM],2%,-24,-10,0.0,10%
C=CCn1c(=O)c2ccccc2n2c(SCC(=O)Nc3cc(C)on3)nnc12,-4.5%,24%,2%,5,-11,9.4,10%
